# CSC inhib: cancer stem cell inhibition. 1.1% of 300,000 active. AID 2717. inhibition, % at 7.5 µM. cancer stem cell-like cells viability, luminescence;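 active means mean at 75% or more and at least half the replicates too; inconclusive means mean and replicates disagree; tested in HMLE shEcad cells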;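 further: 0% = median of negative and 100% = median of positive control wells; the first replicate is given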
# PABP FP inh: blocks human PABP binding to poly(A) RNA | P11940 | 1% of 290,000 active | inhibition, % at 35 µM | fluorescence polarization;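 active means 50% or more with normal probe brightness, or confirmed in later tests; inconclusive means above 50% with abnormal brightness, or retests that disagree; inactive means below 50% or failed in later tests; about a fifth of its hits are not listed in these tables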;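 further: calls also rest on retests at 20 µM and on dose response follow-up; controls were probe without protein and protein plus probe with vehicle; some compounds called inactive have numbers as strong as hits; many hits fall short of the cut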
# Target sequence (P11940 whole entry, looked up): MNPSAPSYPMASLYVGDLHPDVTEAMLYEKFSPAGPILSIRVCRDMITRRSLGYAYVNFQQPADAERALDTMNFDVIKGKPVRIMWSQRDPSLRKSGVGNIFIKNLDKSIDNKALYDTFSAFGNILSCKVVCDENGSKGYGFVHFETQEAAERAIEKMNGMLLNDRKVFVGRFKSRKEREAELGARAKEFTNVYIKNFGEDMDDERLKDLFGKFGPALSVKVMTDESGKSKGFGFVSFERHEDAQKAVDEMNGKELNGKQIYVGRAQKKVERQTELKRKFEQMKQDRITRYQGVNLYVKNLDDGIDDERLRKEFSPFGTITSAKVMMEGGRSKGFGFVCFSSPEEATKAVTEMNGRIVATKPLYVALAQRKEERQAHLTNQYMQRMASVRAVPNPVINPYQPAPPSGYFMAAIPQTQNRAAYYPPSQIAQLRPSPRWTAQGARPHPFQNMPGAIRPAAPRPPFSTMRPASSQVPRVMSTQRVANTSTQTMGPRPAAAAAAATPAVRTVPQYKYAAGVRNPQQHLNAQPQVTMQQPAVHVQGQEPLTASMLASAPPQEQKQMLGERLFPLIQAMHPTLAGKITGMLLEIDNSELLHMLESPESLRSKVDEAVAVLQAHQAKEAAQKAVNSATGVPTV
# eIF4H FP inh: inhibitors of RNA binding by human eIF4H. Q15056. eIF4H fluorescence polarization binding assay. inhibition, % at 35 µM. 0.94% of 290,000 active. AID 2012;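 active means 50% or more with normal probe brightness, or confirmed in later tests; inconclusive means above 50% with abnormal brightness, or retests that disagree; inactive means below 50% or failed in later tests; about a fifth of its hits are not listed in these tables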;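 further: calls also rest on retests at 20 µM and on dose response follow-up; 0% = protein and probe with vehicle and 100% = probe without protein; strong numbers were not always called active; many hits fall short of the cut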
# Rce1 inh: inhibitors of yeast Ras-converting enzyme; Q03530; yeast membranes, quenched prenylated peptide cleavage fluorescence; calls only; 0.27% of 290,000 active;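 active means fall in fluorescence gain of 50% or more versus controls, with final raw signal at or below 3038400; inconclusive means same 50% fall but final raw signal above 3038400; inactive means fall in fluorescence gain under 50%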;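 further: plate controls were neutral control wells for no effect and wells lacking membranes for full effect; tested at 10 µM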
# eIF4H FP inh retest: further read-out of eIF4H FP inh, marked with its call; inhibition, %; compound at 20 µM; confirmation average;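 mean of two retest wells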
# PABP FP inh retest: recorded beside PABP FP inh, whose call it bears; inhibition, %; compound at 20 µM; confirmation repeats;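 mean of two retest wells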
# Numbers without * were called inactive; i = inactive; ? = inconclusive; / = no result given; + = active, no number. An excerpt, so the mix of outcomes need not match the whole.
SMILES,CSC inhib,PABP FP inh,eIF4H FP inh,Rce1 inh,others
Cn1c(=O)c2c(-c3ccccc3)n3c4ccccc4ncc3c2n(C)c1=O,/,/,/,i,
O=C(NCc1ccccc1Br)c1cccc2c1C(=O)c1ccc(N3CCOCC3)cc1S2(=O)=O,28,/,/,/,
CC(C)[C@@]1(c2ccccc2)ON(c2ccccc2C(F)(F)F)C1=O,26,/,/,/,
C=CCn1c(=N)c(C(=O)OCC)cc2c(=O)n3cccc(C)c3nc21,-7,/,/,/,
O=C1c2ccccc2C(=O)C1(O)O,4,/,/,/,
C[C@@H]1CCCCCCCCC(=O)OCCN(C(=O)OC(C)(C)C)[C@H](C)CCCCCCCCC(=O)OCCN(C(=O)OC(C)(C)C)[C@H](C)CCCCCCCCC(=O)OCCN1C(=O)OC(C)(C)C,-8,/,/,/,
NC(=O)C1CCN(c2nc(-c3ccc4c(c3)OCCO4)cs2)CC1,-12,/,/,/,
CCCCC/C=C\C/C=C\C/C=C\C/C=C\CCCC(=O)O,-7,/,/,/,
O=C(O)c1cc(O)c2c(c1)[C@@H]([C@H]1c3cc(C(=O)O)cc(O)c3C(=O)c3c(O[C@@H]4O[C@H](CO)[C@@H](O)[C@H](O)[C@H]4O)cccc31)c1cccc(O[C@@H]3O[C@H](CO)[C@@H](O)[C@H](O)[C@H]3O)c1C2=O,25,/,/,/,
C#CCOCCOCCOCCNc1nc(N2CCN(C(=O)CCCCCCCCCCNC(=O)[C@H]([C@@H](C)CC)n3cc(CCCCCN)nn3)CC2)nc(N2CCN(C(=O)CCCCCCCCCCNC(=O)[C@@H]([C@H](C)CC)n3cc(CCCCCN)nn3)CC2)n1,167*,/,/,/,
CC(=O)c1ccc(O[C@@H]2O[C@H](CO)[C@@H](O)[C@H](O)[C@H]2O)cc1,0,/,/,/,
CC1(C)O[C@@H]2[C@H](O1)[C@@H](COS(=O)(=O)O)O[C@H]2n1cnc2c(N)ncnc21,7,/,/,/,
CC(C)[C@@]1(c2ccc(Cl)cc2)ON(c2ccccc2C(F)(F)F)C1=O,29,/,/,/,
C#CCOCCOCCOCCNc1nc(N2CCN(C(=O)CCCCCCCCCCNC(=O)[C@H](CCCCN)n3cc(C)nn3)CC2)nc(N2CCN(C(=O)CCCCCCCCCCNC(=O)[C@H](CO)n3cc(CCCSC)nn3)CC2)n1,13,/,/,/,
CC(C)=CCc1c(-c2ccc(O)cc2O)oc2c3c(cc(O)c2c1=O)OC(C)(C)C=C3,5,/,/,/,
Cc1cc(C(=O)O)ccc1-n1c(C)ccc1C,9,/,/,/,
CCOC(=O)Cc1csc(NC(=O)c2c(O)c3ccccc3n(C)c2=O)n1,/,16,0,/,
O=C(CSc1nnc(-c2ccc(Cl)cc2)o1)N1CCN(c2ccccc2)CC1,/,24,43,/,
Cc1ccc2c(c1)[nH]c1c(N3CCN(Cc4ccc5c(c4)OCO5)CC3)ncnc12,/,-9,-6,/,
Cc1cc(C)nc(-n2nc(C)cc2NC(=O)c2cc(=O)c3ccccc3o2)n1,/,7,3,/,

# 5 records picked at random from those above, as already listed:
SMILES,CSC inhib,PABP FP inh,eIF4H FP inh,Rce1 inh,others
O=C(NCc1ccccc1Br)c1cccc2c1C(=O)c1ccc(N3CCOCC3)cc1S2(=O)=O,28,/,/,/,
Cc1ccc2c(c1)[nH]c1c(N3CCN(Cc4ccc5c(c4)OCO5)CC3)ncnc12,/,-9,-6,/,
NC(=O)C1CCN(c2nc(-c3ccc4c(c3)OCCO4)cs2)CC1,-12,/,/,/,
CCCCC/C=C\C/C=C\C/C=C\C/C=C\CCCC(=O)O,-7,/,/,/,
O=C(O)c1cc(O)c2c(c1)[C@@H]([C@H]1c3cc(C(=O)O)cc(O)c3C(=O)c3c(O[C@@H]4O[C@H](CO)[C@@H](O)[C@H](O)[C@H]4O)cccc31)c1cccc(O[C@@H]3O[C@H](CO)[C@@H](O)[C@H](O)[C@H]3O)c1C2=O,25,/,/,/,

# Next records:
SMILES,CSC inhib,PABP FP inh,eIF4H FP inh,Rce1 inh,others
CCN(C(=O)c1ccc2c(Cl)c3c(nc2c1)CCC3)c1cccc(C)c1,/,-7,-3,/,
Cc1ccc(S(=O)(=O)N2CCCCC2)cc1C(=O)Nc1ncn[nH]1,/,-3,22,/,
CCN1C(=O)/C(=C2\SC(=S)N(CC3CCCO3)C2=O)c2ccccc21 (stereo not given),/,-7,-2,/,
CN(C)S(=O)(=O)N(CC(=O)Nc1ccccc1C(F)(F)F)c1ccccc1,/,2,-1,/,
COc1nc(-c2ccccc2)ccc1-c1noc(-c2ccc(F)cc2)n1,/,1,-6,/,
Cc1cc(C(F)(F)F)n(-c2nc(C(=O)Nc3ccccc3Oc3ccccc3)cs2)n1,/,-13,-11,/,
O=C1CC(=O)c2c1cccc2[N+](=O)[O-],/,53*,65*,/,
CCn1c(=N)c(C(=O)OC)cc2c(=O)n3ccccc3nc21,/,14,3,/,
O=C(O)CNC1=NCCC1,/,0,-7,/,
COc1cc(-c2nn3c(-c4ccco4)nnc3s2)cc(OC)c1OC,/,-1,-2,/,
CCn1c(=O)c(C2=NS(=O)(=O)c3ccccc3N2)c(O)c2ccccc21,/,9,-3,/,
CCOc1[nH]n(-c2ccc(Cl)cc2)c(=O)c1C=Nc1ccc(C)cc1,/,-15,-4,/,
O=C1NCCCC1C(=O)N1CCN(C(=O)C2CCCNC2=O)CC1 (stereo not given),/,3,10,/,
Cn1c(=O)n(CCN2CCOCC2)c(=O)c2c1nc1n2CCCN1c1ccccc1,/,-8,3,/,
C=CCn1cnc2c(c1=O)c1nc3ccccc3nc1n2Cc1ccccc1,/,2,-10,/,
Cc1c(-c2ccccc2)oc2nc3c(c(=O)n(C)c(=O)n3C)n12,/,-4,1,/,
CCOC(=O)c1cc2c(=O)n3cccc(C)c3nc2n(C)c1=N,/,62*,96*,/,
CCOC(=O)c1c(NC(=O)c2noc3c2CCCC3)sc(C)c1C,/,6,-1,/,
CCOC(=O)Cn1nnnc1C(CC)N(Cc1cc2c(C)cc(C)cc2[nH]c1=O)C1CCCC1 (stereo not given),/,-1,-1,/,
CCOC(=O)c1cc2c(=O)n3cccc(C)c3nc2n(Cc2ccccc2Cl)c1=N,/,-2,-7,/,
CCOC(=O)c1[nH]c2ccc(Br)cc2c1NC(=O)CCN1CCCCC1,/,-5,-2,/,
CC1(C)S[C@@H]2[C@H](NC(=O)[C@H](C(=O)O)c3ccsc3)C(=O)N2[C@H]1C(=O)O,/,-11,4,/,
Cc1cc(C)c2nc3s/c(=C/c4ccccc4)c(=O)n3c2c1,/,2,3,/,
COc1ccc2[nH]cc(C(=O)CN3CCN(C/C=C/c4ccccc4)CC3)c2c1,/,5,3,/,
CCOC(=O)C1=C(O)/C(=C\c2ccc(CNC(=O)C(=O)Nc3ccc(C)c(C)c3)o2)N=C1C,/,?,?,/,
COc1ccccc1NC(=O)CCN1CCN(CCC(=O)Nc2ccccc2OC)CC1,/,4,3,/,
Cc1nnc(Sc2nc3c(c(=O)[nH]c(=O)n3C)n2CCCc2ccccc2)s1,/,-9,-15,/,
Cc1ccc(C)c(CSc2nc3ccncc3n2CC(=O)Nc2ccc(C)c(C)c2)c1,/,0,-12,/,
CCOC(=O)c1[nH]c2cc(OC)c(OC)cc2c1NC(=O)CN1CCN(C)CC1,/,-10,-6,/,
N#C/C(C(=O)c1ccccc1)=C1/SC=C(N)N1c1ccccc1,/,?,?,/,

# Sorted by heavy-atom count (largest number first): part of the list above.
SMILES,CSC inhib,PABP FP inh,eIF4H FP inh,Rce1 inh,others
CCOc1[nH]n(-c2ccc(Cl)cc2)c(=O)c1C=Nc1ccc(C)cc1,/,-15,-4,/,
CCn1c(=N)c(C(=O)OC)cc2c(=O)n3ccccc3nc21,/,14,3,/,
Cc1cc(C(=O)O)ccc1-n1c(C)ccc1C,9,/,/,/,

# Next entries follow.
SMILES,CSC inhib,PABP FP inh,eIF4H FP inh,Rce1 inh,others
Cc1cc2nc(NC3=NCN(Cc4ccc5c(c4)OCO5)CN3)nc(C)c2cc1C,/,0,-5,/,
O=C(Nc1nc2cc3c(cc2s1)OCCO3)c1cccc(S(=O)(=O)N2CCOCC2)c1,/,-12,-6,/,
Nc1ccc(N2CCCCCC2)cc1,/,71*,83*,/,
O=C(/C=C/c1cccc([N+](=O)[O-])c1)NC(=S)Nc1ccccc1C(=O)O,/,-2,30,/,
Cc1ccc2cc(C(c3nnnn3C(C)(C)C)N3CCCC3)c(=O)[nH]c2c1C (stereo not given),/,24,-8,/,
Cc1ccc(C)c(SCC(=O)Nc2cc(C)nn2-c2ccc(F)cc2)c1,/,-4,-3,/,
Cc1cc(N2CCN(C(=O)c3ccco3)CC2)n2nc(C)c(-c3ccc(Cl)cc3)c2n1,/,-53,-21,/,
CCc1nc(SCC(=O)N2CCN(c3ccccc3)CC2)c2c(=O)n(C)c(=O)n(C)c2n1,/,0,-5,/,
Clc1cccc(-c2nn3c(COc4ccccc4)nnc3s2)c1,/,-5,-2,/,
COC(=O)CSc1nnc2c(C)cc3cc4c(cc3n12)OCCO4,/,-7,-5,/,
COC(=O)c1cc2c(=O)n3cccc(C)c3nc2n(Cc2cccnc2)c1=N,/,6,17,/,
CC(=O)Nc1cccc2c1[n+]([O-])c(C)c(C)[n+]2[O-],/,-10,-6,/,
Cn1c(=O)c2c(nc(SCc3ccccn3)n2C)n(C)c1=O,/,-1,-4,/,
Cc1ccc(C(=O)C2=C(O)C(=O)N(c3ncccn3)C2c2cccc(Cl)c2)o1 (stereo not given),/,10,8,/,
Cc1c2c(n3c(nc4ccccc43)c1C#N)N(c1ccccc1)CC2,/,-6,?,/,
O=C(c1cnc2n(c1=O)CCS2)N1CCN(c2ccccc2Cl)CC1,/,2,-11,/,
COc1ccc(C(=O)Cn2c(N3CCOCC3)nc3c2c(=O)n(C)c(=O)n3C)cc1,/,9,-7,/,
CCOC(=O)c1c2ccc(OCC(=O)N/N=C/c3ccccc3C(F)(F)F)cc2n2ccccc12,/,-4,-1,/,
CCOC(=O)c1ccc(N2Cc3cc(C)c(C)cc3C2)cc1O,/,-2,4,/,
CN1CCN(S(=O)(=O)c2ccc(-c3ccc(S(=O)(=O)N4CCN(C)CC4)cc3)cc2)CC1,/,1,1,/,
O=C1c2oc3ccc(Cl)cc3c(=O)c2C(c2cccnc2)N1Cc1ccco1 (stereo not given),/,11,-3,/,
O=C1c2ccccc2-c2onc3c(Oc4ccccc4)cc(O)c1c23,/,83*,85*,/,
Cc1ccc2c(C)nc(NC3=NCN(Cc4ccccc4)CN3)nc2c1,/,24,0,/,
CSc1nnc2c(n1)OC(C1CC=C(C)CC1)Nc1ccccc1-2 (stereo not given),/,4,9,/,
CCc1nc(SCC(=O)Nc2sc(C)c(C)c2C(=O)OC)c2ccccc2n1,/,-13,24,/,
CN(C)CCCNc1c(C(=O)O)cnc2c1cnn2C,/,-3,2,/,
CCOc1cc(NC(=O)c2cnccn2)c(OCC)cc1NC(=O)c1ccc(OC)cc1,/,-4,-7,/,
c1ccc(-n2ncc3c(N4CCN(c5ccccn5)CC4)nc(N4CCCCC4)nc32)cc1,/,6,-5,/,
O=P(O)(CCCCP(=O)(O)CCc1ccccc1)CCc1ccccc1,/,4,-5,/,
COC(=O)c1ccc(-c2nc3ccccc3o2)cc1,/,-4,-8,/,
Cc1cc(C)n2nc(C(=O)Nc3ccccc3N3CCOCC3)nc2n1,/,-11,-6,/,
COc1ccc2nc(NC3=NCN(CC4CCCO4)CN3)nc(C)c2c1 (stereo not given),/,13,-10,/,
CCCCC[C@H](O)/C=C/[C@H]1C=CC(=O)[C@@H]1C/C=C\CCCC(=O)O,/,+,94,/,eIF4H FP inh retest=15;PABP FP inh retest=71*
O=C1CCCc2nc3nc4ccccc4n3cc21,/,1,4,/,
O=c1nc2n(c3ccccc13)Cc1ccccc1-2,/,-17,4,/,
O=P(O)(CN1CCCCC1)CN1CCCCC1,/,-18,-6,/,
CCN1CCC(C(=O)NC2CCCC2)(N(Cc2cccs2)C(=O)Cn2nnc3ccccc32)CC1,/,3,1,/,

# Screening results (PubChem BioAssay)
